Screening results from PubChem.
Vaccinia pol inh = inhibitors of vaccinia virus processive DNA synthesis (E9 polymerase); in vitro processive DNA synthesis, absorbance read-out; hits give low values; some inactives read as strong as hits; normalized absorbance, % (no concentration beside the values); AID 493162; actives 0.94% (n = 46,000);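 active means replicate mean up to 90% and picked by the depositor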;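 further: 100% = median of the test wells of a plate; 100 nL library stock went into each well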
* hit, by the source's call. An excerpt. The share of hits here may be higher or lower than overall.

> CCCCC[C@H](O)/C=C/[C@@H]1[C@H]2C/C(=C/CCCC(=O)O)C[C@H]2C[C@H]1O
  Vaccinia pol inh: 100
> Cc1ccn2cc(-c3ccccc3)nc2c1
  Vaccinia pol inh: 96
> COc1cc2ccccc2cc1C(=O)OCC(=O)N1CCc2ccccc2C1
  Vaccinia pol inh: 98
> O=C(N1CCN(c2ccccc2)CC1)C(F)(F)F
  Vaccinia pol inh: 104
> CCc1ccc(NC(=S)N(Cc2cccs2)C2CCCC2)cc1
  Vaccinia pol inh: 104
> O=C(NCCSc1c[nH]c2ccccc12)c1ccco1
  Vaccinia pol inh: 101
> C=CCN1C(=O)/C(=C\c2ccc(OC(=O)c3ccco3)c(OC)c2)SC1=S
  Vaccinia pol inh: 100
> CCNC(=S)N1CCCC(C(N)=O)C1 (stereo not given)
  Vaccinia pol inh: 92
> CC(C)C(=O)Nc1cccc(-c2nc3ccccc3c(=O)o2)c1
  Vaccinia pol inh: 100
> O=C(Nc1ccc(S(=O)(=O)Nc2nccs2)cc1)N1c2ccccc2Sc2ccccc21
  Vaccinia pol inh: 100
> CC1(C)COC(/C=C(\N)c2ccc(Br)cc2)=N1
  Vaccinia pol inh: 96
> COc1ccc(/C=C/C(=O)Nc2nnc(SCc3ccccc3)s2)cc1OC
  Vaccinia pol inh: 100
> O=C(c1ccc(Cl)c(Cl)c1)c1nccn1-c1ccccn1
  Vaccinia pol inh: 97
> CC(=O)Nc1ccccc1C(=O)N(Cc1ccccc1)Cc1ccccc1
  Vaccinia pol inh: 100
> O=C(N1CCSCC1)C12CC3CC(CC(C3)C1)C2
  Vaccinia pol inh: 95

> CC(NC(=O)CSc1ccccc1Cl)c1ccccc1 (stereo not given)
  Vaccinia pol inh: 92
> CSc1cc(C(F)(F)F)nc(-c2ccccn2)n1
  Vaccinia pol inh: 110
> CC1=NC(=O)CN1c1ccc(N)cc1
  Vaccinia pol inh: 100
> O=C(CNc1ccc2c(c1)oc1ccccc12)c1ccc(F)cc1
  Vaccinia pol inh: 100
> CCn1c(-c2ccc(C)cc2)nc2ccccc21
  Vaccinia pol inh: 106
> CC1CC(C)CN(C(=O)c2ccc(CNS(=O)(=O)c3ccc(F)cc3)cc2)C1 (stereo not given)
  Vaccinia pol inh: 104
> CCC(=O)N1N=C(c2ccccc2)CC1c1ccc(N(C)C)cc1 (stereo not given)
  Vaccinia pol inh: 100
> CCn1c(CCNC(C)=O)nc2ccccc21
  Vaccinia pol inh: 101
> O=C(CSc1ncnc2c1nnn2-c1ccc(F)cc1)N1CCCc2ccccc21
  Vaccinia pol inh: 101
> CN(C)c1ccc(-c2nc3ccccc3[nH]2)cc1
  Vaccinia pol inh: 101
> O=C(COc1ccc2ccccc2c1)Nc1ccc2nn(-c3ccccc3)nc2c1
  Vaccinia pol inh: 99
> O=C1c2ccccc2-c2nn(C(=O)Cc3ccccc3)c3cccc1c23
  Vaccinia pol inh: 95
> O=C1Cc2ccccc2C(=O)N1Cc1ccco1
  Vaccinia pol inh: 98
> CCOC(=O)C1=CN(C)C=C(C(=O)OCC)C1c1cc(Br)c(O)c(OC)c1
  Vaccinia pol inh: 108
> COC(C(=O)Nc1ccc(Cl)cn1)c1ccccc1 (stereo not given)
  Vaccinia pol inh: 100

> C=CCN(C(=O)c1cc2cc3cc(OC)ccc3nc2s1)c1ccccc1
  Vaccinia pol inh: 106
> COCCN1C(=O)c2ccccc2C(C(=O)NCCc2cccc(C)c2)C1c1c[nH]c2ccccc12 (stereo not given)
  Vaccinia pol inh: 104
> O=C(c1ccccn1)c1conc1-c1c(Cl)cccc1Cl
  Vaccinia pol inh: 103
> O=C1CSC(c2cn(-c3ccccc3)nc2-c2ccccc2)N1CCO (stereo not given)
  Vaccinia pol inh: 97
> CCOC(=O)c1cc(-c2ccc(Cl)s2)nn1C(C)=O
  Vaccinia pol inh: 102
> CCc1ccccc1NC(=O)CCSc1nc2n[nH]c(C)c2c(=N)n1-c1cccc(Cl)c1
  Vaccinia pol inh: 93
> Cc1ccc(-n2nc(C)c(C(=O)O)n2)cc1
  Vaccinia pol inh: 103
> Cc1cc(C)n2nc(SC(C)C(=O)NCc3ccccc3Cl)nc2n1 (stereo not given)
  Vaccinia pol inh: 103
> O=C(COC(=O)CC1CCCC1)NC1CCCCCC1
  Vaccinia pol inh: 93
> CCOC(=O)/C(C#N)=C1/CCCN1
  Vaccinia pol inh: 100
> O=C(O)c1cc2ccccc2oc1=O
  Vaccinia pol inh: 100
> CCOC(=O)CCSc1nc(C)c2ccccc2n1
  Vaccinia pol inh: 100
> c1ccc(COc2cccc(CNn3cnnc3)c2)cc1
  Vaccinia pol inh: 102
> CSc1ccc(C2N[C@@H](C(=O)O)C(C)(C)S2)cc1 (stereo not given in full)
  Vaccinia pol inh: 83
> Cc1ccc(SCC(=O)Nc2ccc(C)cc2C)cc1
  Vaccinia pol inh: 102

> COc1cccc(Nc2nc(-c3ccccc3)cs2)c1
  Vaccinia pol inh: 99
> O=C(O)c1cccnc1C(=O)O
  Vaccinia pol inh: 100
> Cc1cccc2oc(-c3ccc(N=Cc4cc(C(=O)O)ccc4O)cc3)nc12
  Vaccinia pol inh: 100
> Cn1c(C(Cc2ccccc2)NC(=O)c2cccs2)nc2ccccc21 (stereo not given)
  Vaccinia pol inh: 100
> O=S(=O)(Cc1ccccc1)c1ccc(Cl)c(Cl)c1
  Vaccinia pol inh: 98
> CCOc1ccccc1C(=O)NC(C(=O)O)C(C)C (stereo not given)
  Vaccinia pol inh: 104
> COc1cccc(CSc2nc3nccnc3c(=O)n2CCc2ccccc2)c1
  Vaccinia pol inh: 100
> Cc1ccc(S(=O)(=O)NCCSc2nnnn2C)cc1
  Vaccinia pol inh: 100
> Cc1ccc2nc(NC(=O)C(NC(=O)c3ccccc3)C(C)C)sc2c1 (stereo not given)
  Vaccinia pol inh: 95
> COc1ccc2cc(C#N)c(=O)oc2c1
  Vaccinia pol inh: 106
> N#CCSc1nc2c(sc3ccccc32)c(=O)n1C1CCCCC1
  Vaccinia pol inh: 102
> Nc1cc(C(F)(F)F)cc2c1OCC(=O)N2
  Vaccinia pol inh: 109
> Cc1nc(C(=O)/C=C/N(C)C)cs1
  Vaccinia pol inh: 99
> Clc1ccc(CNCc2cccnc2)cc1
  Vaccinia pol inh: 101
> O=C(Cc1ccccc1)Nc1c2c(nn1-c1ccccc1)CSC2
  Vaccinia pol inh: 100

> CN1CCc2c(OCC(=O)NCc3ccco3)cccc2C1=O
  Vaccinia pol inh: 101
> CCCCN(CC)C(=O)Cn1cnc2ccc(S(=O)(=O)N3CCC(C)CC3)cc2c1=O
  Vaccinia pol inh: 95
> Cc1ccc(OCC(=O)NCC(=O)n2nc(C)cc2C)cc1
  Vaccinia pol inh: 100
> CC(C#N)(Nc1ccccc1)c1ccc(F)cc1 (stereo not given)
  Vaccinia pol inh: 77
> c1cnc2c(CN3CCCCC3)cccc2c1
  Vaccinia pol inh: 100
> COC(=O)[C@H]1[C@H]2C[C@H]3c4[nH]c5ccccc5c4CCN3C[C@H]2CC[C@@H]1O
  Vaccinia pol inh: 100
> O=C(O)CCCc1c[nH]c2ccccc12
  Vaccinia pol inh: 102
> CC1CCCC(C)N1C(=O)COC(=O)c1ccco1 (stereo not given)
  Vaccinia pol inh: 76
> COc1nc2ccccc2nc1OC
  Vaccinia pol inh: 106
> CCOc1ccc(NC(=O)c2cnccn2)cc1
  Vaccinia pol inh: 98
> CCC(=O)n1ccc(C(=O)N2CCOCC2)n1
  Vaccinia pol inh: 101
> O=C(CSc1nc2ccccc2o1)NCCOC12CC3CC(CC(C3)C1)C2
  Vaccinia pol inh: 101
> O=C(Nc1ccc2c(c1)OCCO2)c1ccccc1F
  Vaccinia pol inh: 99
> Cc1ccc(N2CC3=C(C2=O)C(c2ccccc2)NC(=O)N3C)cc1C (stereo not given)
  Vaccinia pol inh: 100
> COc1ccc2cc(CCNC(=O)/C=C\c3ccccc3)c(=O)[nH]c2c1
  Vaccinia pol inh: 99

> Cc1ccc(N2CC(=O)SC23CCCCC3)cc1
  Vaccinia pol inh: 100
> CCN(CC)C(=S)Nc1ccsc1C(=O)OC
  Vaccinia pol inh: 101
> CCC(CC)C(=O)c1c[nH]c(C(=O)NCc2cccs2)c1
  Vaccinia pol inh: 104
> COc1nc(C#N)c(N(C)C)o1
  Vaccinia pol inh: 99
> CCOC(=O)c1cnc2ccc(OCC)cc2c1N1CCN(c2ccccc2)CC1
  Vaccinia pol inh: 100
> CCOC(=O)c1c(C)nn(-c2ncc(C(F)(F)F)cc2Cl)c1C
  Vaccinia pol inh: 103
> O=S(=O)(Nc1cc(Br)c(O)c2ccccc12)c1ccc(Cl)cc1
  Vaccinia pol inh: 81
> N#Cc1cc(Br)ccc1N=C1CCCN1c1cccc(Cl)c1
  Vaccinia pol inh: 100
> O=C(Nc1ccccc1)Nc1csc2ccccc12
  Vaccinia pol inh: 98
> COc1ccc(N=C/C(Br)=C/c2ccccc2)cc1OC
  Vaccinia pol inh: 98
> Cc1cccc(C)c1NC(=O)CC(NCc1ccco1)C(=O)O (stereo not given)
  Vaccinia pol inh: 102
> O=C(Nc1cccnc1)c1cc2c(=O)[nH]c3ccccc3c2s1
  Vaccinia pol inh: 97
> CCN(CC)C(=O)N1CCc2ccccc2C1CN1C(=O)c2ccccc2C1=O (stereo not given)
  Vaccinia pol inh: 100
> COc1ccc(Nc2c3c(nc4ccc(NC(=O)C5CC5)cc24)CCCC3)cc1OC
  Vaccinia pol inh: 103
> CCC(C)C(N)C(=O)N1CCCC1C(=O)NC(C(=O)O)C(C)CC (stereo not given)
  Vaccinia pol inh: 100

> Cc1nc2nc(SCC(=O)NC3CCCC(C)C3C)nn2c(C)c1Cc1ccccc1Cl (stereo not given)
  Vaccinia pol inh: 92
> O=S(=O)(c1ccc(Br)cc1)N1CCCCCC1
  Vaccinia pol inh: 101
> CC(=O)Nc1cc([As](=O)(O)O)ccc1O
  Vaccinia pol inh: 92
> O=C(COc1ccc(Cl)cc1)NCc1nnc(SCC(=O)Nc2cccc(F)c2)o1
  Vaccinia pol inh: 103
> COc1ccc(CCN=Cc2ccc3c(c2)OCO3)cc1OC
  Vaccinia pol inh: 108
> N#Cc1c(C(F)(F)F)cc(C2CC2)nc1SCCN1CCCCC1
  Vaccinia pol inh: 96
> O=C1c2ccccc2S(=O)(=O)N1Cc1ccc2nonc2c1
  Vaccinia pol inh: 100
> CC1=NN(c2ccccc2)C(c2ccc(OCC(=O)NCCC3=CCCCC3)cc2)C1 (stereo not given)
  Vaccinia pol inh: 100
> CSc1ccc2c(c1)N(CCC1CCCCN1C)c1ccccc1S2 (stereo not given)
  Vaccinia pol inh: 93
> O=C(c1ccc2c(c1)C(=O)N(Cc1ccco1)C2=O)N1CCOCC1
  Vaccinia pol inh: 104
> O=C1/C(=C/c2ccc(N3CCOCC3)cc2)Cc2ccccc21
  Vaccinia pol inh: 90
> CN1c2ccccc2C(C)(C)C12Cc1cc(NS(=O)(=O)c3ccc(Cl)cc3)ccc1O2 (stereo not given)
  Vaccinia pol inh: 100
> N#CCc1nn2c(C(F)(F)F)cc(C(F)(F)F)nc2c1C#N
  Vaccinia pol inh: 104
> CC1CC(=O)Nc2ccccc2N1C=O (stereo not given)
  Vaccinia pol inh: 100
> O=C(c1nc(-c2cccnc2)no1)N1CCOCC1
  Vaccinia pol inh: 111

> O=C(Nc1c2c(nc3ccccc13)CCCC2)c1ccccc1Cl
  Vaccinia pol inh: 99
> Fc1ccc(C2=CSC3=NCCCN23)cc1F
  Vaccinia pol inh: 108
> O=C1NC(c2cccs2)Nc2c1sc(=S)n2-c1ccccc1 (stereo not given)
  Vaccinia pol inh: 100
> CCc1ccc(N(CC(=O)NC2CCCC2)S(=O)(=O)c2c(C)noc2C)cc1
  Vaccinia pol inh: 97
> O=C(Nc1cccc(F)c1)C1COc2ccccc2O1 (stereo not given)
  Vaccinia pol inh: 96
> Cc1c(C)c(C)c(CSC(=S)N(C)C)c(C)c1C
  Vaccinia pol inh: 105
> CCCc1cc(O)c2c(C)cc(=O)oc2c1
  Vaccinia pol inh: 102
> OC1(c2ccccc2)CCN(Cc2ccccc2)[C@@H]2CCCC[C@@H]21 (stereo not given in full)
  Vaccinia pol inh: 106
> CCOc1ccc(CNc2ccc(N3CCCC3)cc2)cc1
  Vaccinia pol inh: 98
> NC(CC(=O)Nc1ccc(Cl)cc1)C(=O)O (stereo not given)
  Vaccinia pol inh: 103
> O=C1/C(=C/c2cn[nH]c2-c2ccc(F)cc2)CS/C1=C\c1cn[nH]c1-c1ccc(F)cc1
  Vaccinia pol inh: 99
> S=C(Nc1cccc(Cl)c1)Nc1cccc(Cl)c1
  Vaccinia pol inh: 95
> O=C(NC1(C(F)(F)F)Oc2ccccc2O1)C(F)(F)F
  Vaccinia pol inh: 97
> CCCc1c(O)c2ccccc2[nH]c1=O
  Vaccinia pol inh: 95
> CCOC(=O)c1ccc(NC(=O)Cn2cc(C(=O)CC)c3ccccc32)cc1
  Vaccinia pol inh: 96
